StopGo RLuc: FMDV 2A StopGo reporter, Renilla signal; HEK cells with a luciferase reporter of 2A StopGo recoding; Potency, µM (series often up to 57.5 µM), without a hit: top-dose signal change, negative = less light; 0.32% of 120,000 active; active means well fitted falling curve with a large enough effect; inconclusive means small, poorly fitted or top-dose-only effect; inactive means no such curve, though single readings can be large or run the other way; further: nearly all actives have a fitted effect of over 55% in size; overnight with compound
2A firefly: FMDV 2A StopGo reporter, firefly signal | Potency, µM (top dose mostly 57.5 µM), inactives show at the highest dose signal change, negative = less light | HEK cells with a luciferase reporter of 2A StopGo recoding | 0.23% of 120,000 active; active = well fitted falling curve with a large enough effect; inconclusive = small, poorly fitted or top-dose-only effect; inactive = no such curve, though single readings can be large or run the other way; further: nearly all actives have a fitted effect of over 60% in size; overnight with compound
* hit, by the source's call; ? = inconclusive; & = joins results of further samples; [ ] = another dose, or the depositor's remark. On the % scale 0 is the no-effect control and ±100 the full control effect; potency means the concentration at half of the fitted maximal effect. This is a subset. The share of hits here may be higher or lower than overall.

SMILES	StopGo RLuc	2A firefly
CC1=C(C(=O)Nc2ccccc2)C(c2cccc(O)c2)n2nc(-c3ccccc3Cl)nc2N1 (stereo not given)	17%	-23%
CCCCN(C)CCC(=O)Nc1cccc(Cl)c1	43%[activator]	51%[activator]
COc1ccc2c(CNCc3ccco3)c(C(=O)O)n(Cc3ccc(F)cc3Cl)c2c1	28%	-2%
Cc1nc(-c2ccccc2F)sc1C(=O)NC1C=CS(=O)(=O)C1 (stereo not given)	?	20%
CN(CC(=O)Nc1cccc(F)c1)C(=O)c1csc2c1CCCC2	20%	1%
CSc1ccc(CNC(=O)c2ncoc2-c2cccs2)cc1	27%	108%[activator]
C/C(=C(/C#N)c1nc2ccccc2[nH]1)c1ccc(C)cc1	17%	158%[activator]
CC(C)NC(=O)c1ccc(Cn2c(=O)c3cccn3c3cccnc32)cc1	-5%	-10%
COc1ccc(C(=O)Oc2cccc(OC(=O)c3ccc(OC)cc3)c2)cc1	-2%	14%
CC(C)c1ccc(N2C(=O)CSC23C(=O)N(C)c2ccccc23)cc1 (stereo not given)	18%	-2%
COc1ccc(NC(=O)CCc2c(C)[nH]n(-c3ccc(F)cc3)c2=O)cc1OC	2%	-2%
COc1ccc(-n2nc(C)c3c2NC(=O)CC3c2ccc(O)c(OC)c2)cc1 (stereo not given)	53%[activator]	35%[activator]
Cc1ccc(S(=O)(=O)N2CCN(C(=O)Cc3ccccc3)CC2)cc1C	-1%	-1%
CCCCCCCCc1cnc(-c2ccc(O)cc2)nc1	2%	79%[activator]
O=C(c1cc(-c2ccccc2)on1)N(Cc1ccco1)Cc1ccccc1F	115%[activator]	11%
Clc1ccc(-c2onc3cc(-c4ccccc4)ccc23)cc1	6%	19%
Cc1cccc(-c2nc3scc(CCNS(=O)(=O)c4ccc5c(c4)OCCO5)n3n2)c1	5%	-13%
O=C(Nc1ccc2oc(-c3ccccc3F)nc2c1)c1cccc(I)c1	5%	34%[activator]
CCN(Cc1nc2ccccc2c(=O)[nH]1)Cc1cc(=O)oc2cc(C)ccc12	10%	7%
CCCn1c(Cn2ccnc2C)nc2cc(NC(=O)c3cc(OC)c(OC)c(OC)c3)ccc21	24%	0%
Cn1c(=O)c2[nH]c(N3CCN(C(=O)C4CC4)CC3)nc2n(C)c1=O	-2%	8%
CCNC(=O)C(=O)NCC(c1ccco1)S(=O)(=O)c1ccc(Cl)cc1 (stereo not given)	7%	-1%
CCOc1ccc(NC(=O)CSc2oc(-c3ccco3)nc2S(=O)(=O)c2ccc(Cl)cc2)cc1	-6%	5%
COc1ccc(NC(=O)c2nnn(Cc3nc(-c4cc(Br)ccc4OC)oc3C)c2C)cc1	-10%	-14%
O=C(COc1ccc(F)cc1)Nc1ccc2oc(-c3cccc(Cl)c3)nc2c1	-9%	11%
COc1ccc(CNC(=O)C2CCCN(S(=O)(=O)c3ccc4c(ccn4C)c3)C2)c(OC)c1 (stereo not given)	36%[activator]	-24%
O=C(CSC(c1ccccc1)c1ccccc1)Nc1ccc2c(c1)OCCCO2	16%	-1%
CCOc1ccc(-c2cc(C(F)(F)F)c(C#N)c(SCC(=O)Nc3ccccc3)n2)cc1	-5%	-16%
Cc1ccc(NC(=O)C2CC(c3ccc(F)cc3)=NO2)cc1 (stereo not given)	32%[activator]	17%
CCN(CC)C(=O)COc1nc(-c2ccco2)c2c(c1C#N)CCC2	13%	21%
Cc1c(Cl)cccc1NC(=O)CSc1ncnc2ccccc12	-6%	-6%
O=C(Cc1c[nH]c2ccccc12)N1CCN(CC(=O)N2CCCC2)CC1	-13%	-12%
COc1ccc(C2Nc3ccccc3-c3cc(C)nn32)c(OC)c1 (stereo not given)	132%[activator]	164%[activator]
CC1(C)CC(NC(=S)NC2CCCC2)CC(C)(C)N1	1%	-1%
Cc1ccc(Cn2c(SCC(=O)NCc3ccc(Cl)cc3)nc3ccsc3c2=O)cc1	-12%	-23%
COc1ccc(-c2nn3c(=O)cc(CN4CCN(S(=O)(=O)c5ccc(C)cc5)CC4)nc3s2)cc1	-8%	-11%

Next section, starting with the last 2 of the part before.
SMILES	StopGo RLuc	2A firefly
Cc1ccc(Cn2c(SCC(=O)NCc3ccc(Cl)cc3)nc3ccsc3c2=O)cc1	-12%	-23%
COc1ccc(-c2nn3c(=O)cc(CN4CCN(S(=O)(=O)c5ccc(C)cc5)CC4)nc3s2)cc1	-8%	-11%
NC(=O)NC(=O)COC(=O)c1ccc(F)cc1F	-15%	-3%
Cc1nc2c(cnn2C(C)C)cc1C(=O)N(C)Cc1ccc(Cl)cc1Cl	-4%	-30%
COc1ccc(Nc2c3c(nc4ccc(NC(=O)/C=C/c5cccc(OC)c5OC)cc24)CCCC3)cc1OC	?	?
Cc1cc(C(=O)OC(C)C(=O)N2CCCCCC2)c2ccccc2n1 (stereo not given)	-10%	1%
CCCCC(=O)N1CCc2cc(OC)c(OC)cc2C1COc1ccc(OC)cc1 (stereo not given)	-5%	0%
COc1cccc(CNC(=O)CCc2c(C)nn(-c3ccc(N4CCOCC4)nn3)c2C)c1	?	?
CC(C)NC(=O)CSc1nc(NC2CC2)c2ccccc2n1	-2%	-3%
CCCOC(=O)c1cccc(Nc2nc(C(=O)OCC)nc3ccccc23)c1	-3%	-3%
COc1ccc2nc(NC(=O)c3cc(-c4ccccc4)on3)sc2c1	-2%	12%
CC(C)Oc1ccc(CNC(=O)CN2C(=O)CCn3nc(-c4cn(C)c5ccccc45)cc32)cc1	?	-2%
COc1cccc(OC)c1C(=O)NCCc1c[nH]c2ccccc12	21%	2%
CCn1c2ccccc2c2nnc(N3CCN(c4ccc(OC)cc4)CC3)nc21	-6%	-9%

Reprinted from the listing, 13 compounds:
SMILES	StopGo RLuc	2A firefly
COc1ccc(-c2nn3c(=O)cc(CN4CCN(S(=O)(=O)c5ccc(C)cc5)CC4)nc3s2)cc1	-8%	-11%
NC(=O)NC(=O)COC(=O)c1ccc(F)cc1F	-15%	-3%
Cc1nc2c(cnn2C(C)C)cc1C(=O)N(C)Cc1ccc(Cl)cc1Cl	-4%	-30%
COc1ccc(Nc2c3c(nc4ccc(NC(=O)/C=C/c5cccc(OC)c5OC)cc24)CCCC3)cc1OC	?	?
Cc1cc(C(=O)OC(C)C(=O)N2CCCCCC2)c2ccccc2n1 (stereo not given)	-10%	1%
CCCCC(=O)N1CCc2cc(OC)c(OC)cc2C1COc1ccc(OC)cc1 (stereo not given)	-5%	0%
COc1cccc(CNC(=O)CCc2c(C)nn(-c3ccc(N4CCOCC4)nn3)c2C)c1	?	?
CC(C)NC(=O)CSc1nc(NC2CC2)c2ccccc2n1	-2%	-3%
CCCOC(=O)c1cccc(Nc2nc(C(=O)OCC)nc3ccccc23)c1	-3%	-3%
COc1ccc2nc(NC(=O)c3cc(-c4ccccc4)on3)sc2c1	-2%	12%
CC(C)Oc1ccc(CNC(=O)CN2C(=O)CCn3nc(-c4cn(C)c5ccccc45)cc32)cc1	?	-2%
COc1cccc(OC)c1C(=O)NCCc1c[nH]c2ccccc12	21%	2%
CCn1c2ccccc2c2nnc(N3CCN(c4ccc(OC)cc4)CC3)nc21	-6%	-9%

The list continues:
SMILES	StopGo RLuc	2A firefly
COc1ccc(CN(C)CC(=O)NC(=O)NC2CCCCC2)cc1	18%	3%
COc1ccc(Cn2c(SCC(=O)N(C)Cc3ccccc3)nc3ccccc32)cc1	45%[activator]	22%
Cc1cc(C)c2nc(N3CCC(C(=O)NCc4ccc(OC(C)C)cc4)CC3)sc2c1	-3%	1%
O=C(Nc1cc(C(F)(F)F)ccc1Cl)c1cccc(OCc2ccccc2)c1	3%	0%
COc1ccc(Cl)cc1C(=O)NNC(=O)C1CCCC(C(F)(F)F)C1 (stereo not given)	39%[activator]	-8%
Fc1ccc(-c2noc3ncnc(NCCc4ccccc4)c23)cc1	6%	-12%
COc1ccccc1N1CCN(c2nc(C)c3c(n2)CC(C)(C)CC3=O)CC1	-14%	-15%
O=C(c1cc2ccccc2oc1=O)N1CCN(c2ccc(Cl)cc2)CC1	2%&-11%	20%&-15%
CCN1CCN(c2oc(COc3ccccc3F)nc2C#N)CC1	5%	96%[activator]
Cc1nn(CC(=O)NC(C)(C)C)c(C)c1S(=O)(=O)N1CCCC(C(=O)N2CCCCC2)C1 (stereo not given)	-9%	-6%
CCc1ccc(NC(=O)CN2C(=O)C3(SCC(=O)N3c3ccc(F)c(F)c3)c3ccccc32)cc1 (stereo not given)	-15%	3%
CC(=O)OCC(=O)[C@@]12OC(C)(C)O[C@@H]1C[C@H]1[C@@H]3C[C@H](F)C4=CC(=O)C=C[C@]4(C)[C@@]3(F)[C@@H](O)C[C@@]12C	3%	-5%
Cc1ccc(-n2nnc(C(=O)N(C)c3ccccc3)c2C)cc1Cl	-2%	0%
OCC(CO)N[C@H]1C[C@](O)(CO)[C@@H](O)[C@H](O)[C@H]1O	-8%	-14%
CC1(C)CC(=O)C/C(=N/NC(=O)c2ccccc2Br)C1	2%	6%
CCCCNC(=O)CCC1N=C2c3ccccc3N=C(SCC(=O)NCCc3ccc(OC)c(OC)c3)N2C1=O (stereo not given)	-1%	-18%
COc1ccc(-c2nn(Cc3nc(-c4ccc(Br)cc4)no3)c(=O)c3ccccc23)cc1	10%	15%
COc1ccc(CNC(=O)c2cnc(N3CCOCC3)c3ccccc23)cc1	47%[activator]	-1%
O=C(Nc1ccccc1C(=O)OCc1cc(=O)n2c3c(sc2n1)CCCC3)c1ccc(Cl)cc1	?	0%
Oc1ccc2ccccc2c1C=NCCSSCCN=Cc1c(O)ccc2ccccc12	-2%	9%
Cc1ccccc1-n1nnnc1C(C)(C)NC1CCCCC1	36%[activator]	-1%
CCN(CC)C(=O)Cn1c(=O)n(CCc2ccccc2)c(=O)c2ccccc21	-1%	-5%
CCOC(=O)c1c(C)[nH]c(CCC(=O)Nc2ccc(OC)c(OC)c2)c1C	-6%	-9%
COc1ccc(-c2[nH]ncc2C(=O)NCc2cccc(OC)c2)cc1	-2%	23%
CC[C@H](c1ccc(O)cc1)[C@@H](CC)c1ccc(O)cc1	-23%	5%[11.5 µM]
CCOc1ccc(/C=C/c2nc(C#N)c(NCc3ccc(C)cc3)o2)cc1	6%	15%
Cc1cccc(OCCCn2cnc3c2c(=O)n(C)c(=O)n3C)c1	-20%	-8%
CC(NC(=O)C(=O)c1cn(CC(=O)N2CCOCC2)c2ccccc12)c1ccccc1 (stereo not given)	1%	15%
COc1ccc(NC(=O)c2ccc(-c3nc(CSc4ccc(C)cc4)c(C)o3)cc2)cc1Cl	0%	?
C(#Cc1ccccc1)C[N+]1(CC#Cc2ccccc2)CCOCC1	9%[1.06 µM]	-18%
Cc1ccc(COC(=O)c2ccc(Cl)c(S(=O)(=O)N3CCCCC3)c2)cc1	-6%	0%
CC(C)C(=O)Nc1ccc2[nH]cc(C(C(=O)O)N3CCN(c4ccc(F)cc4)CC3)c2c1 (stereo not given)	-7%	-1%
Cc1cccc(Cn2nnc3c(=O)[nH]c(C4CCN(C(=O)c5ccccc5)CC4)nc32)c1	-2%	-9%
CCn1c(SCC(=O)c2ccc(Cl)s2)nnc1-c1ccccc1	16%	55%[activator]
Cc1cc2oc(C(=O)N(Cc3ccc(N(C)C)cc3)CC3CCCO3)c(C)c2cc1C (stereo not given)	37%[activator]	-8%
Cc1cccc(-c2noc(-c3ccc(NC4CCCC4)c([N+](=O)[O-])c3)n2)c1	8%	5%
CCC1c2ccsc2CCN1C(=O)C1CCN(S(=O)(=O)c2ccc(C(C)=O)cc2)CC1 (stereo not given)	-8%	-12%
C=CCN1CC[C@]23CCCC[C@H]2[C@H]1Cc1ccc(O)cc13	-16%	-25%
COc1ccc(CN(C)C(=O)CSc2nnc(COc3ccc(Cl)cc3)n2C)cc1F	-12%[1.06 µM]	?
CCCn1c(=O)n(CCC(=O)Nc2cc(C)cc(C)c2)c2ccccc21	-4%	6%
Cc1ccc(C)c(CS(=O)(=O)Cc2nc(CC(C)C)no2)c1	11%	46%[activator]
CC1(C)Cc2c(C#N)c(N3CCN(C(=O)C(=O)N4CCOCC4)CC3)nc(-c3ccco3)c2CO1	-16%	-16%
CC1CCN(S(=O)(=O)c2ccc(-c3nc(C#N)c(NCCCN4CCOCC4)o3)cc2)CC1	30%[activator]	-7%
Cc1ccc(N2CC(O)=C(c3nc4ccccc4s3)C2=N)cc1O	132%[activator]	171%[activator]
CC(C)N(CCNC(=O)c1cc(C2CC2)nc2ccccc12)C(C)C	-15%	-18%
Cc1cc(NC(=O)COc2ccccc2C(=O)c2cc(C#N)c(=O)n(C(C)C)c2)ccc1N1CCCC1	0%	8%
Cn1c(=O)c2c(nc(NCc3ccco3)n2Cc2ccccc2Cl)n(C)c1=O	-3%	8%
Cc1ccc(CCNC(=O)c2cc3c(s2)-c2c(C)cccc2OC3)cc1	-5%	13%
C#CC1(O)C(C)CN(C)CC1C (stereo not given)	7%	-4%
CCc1ccc(C(=O)C(C)CN2CCCCC2)cc1 (stereo not given)	-14%	-15%
CC(=O)Nc1ccc(NC(=S)NC(NC(=O)C(C)(C)C)C(Cl)(Cl)Cl)cc1 (stereo not given)	22%	-11%
CN(CCCNC(=O)c1cc2c(=O)n(C)c3ccccc3c2s1)Cc1ccccc1	-1%	-15%
CCCCC1CCC(C(=O)Oc2ccc(C=O)c(O)c2)CC1 (stereo not given)	5%	5%
CCN(C(=O)c1cccs1)c1ccccc1C	17%	18%
COc1ccccc1NC(=O)C(C)OC(=O)c1nn(C)c(=O)c2ccccc12 (stereo not given)	-9%	-4%
COC(=O)c1ccc(Nc2cc(C)nc3ccc(OC)cc23)cc1	-8%	15%
COc1ccc(C(CNC(=O)c2ccc(Br)s2)N2CCCC2)cc1 (stereo not given)	39%[activator]	11%
CCOC(=O)C(=O)Nc1ccc(C(=O)OC)cc1	10%	0%
O=C(NCCCN1CCN(c2ccccc2)CC1)c1cc2c(s1)-c1ccccc1OC2	-24%	-11%
N#Cc1cccc(S(=O)(=O)N2CCCCC2C(=O)N2CCCC2)c1 (stereo not given)	0%	6%

Compound activity deposited in PubChem BioAssay by National Center for Advancing Translational Sciences (NCATS).
